# From PubChem BioAssay
# CDC25B-CDK2 inh – human CDC25B-CDK2/CyclinA binding inhibition. HTRF CDC25B-CDK2/CyclinA binding, anti-His/anti-Flag; hits give high values. z-score (no concentration beside the values). 0.72% of 94,000 active. AID 1259370. P30305+P24941;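 further: score is relative to mean and SD of negative controls; strong numbers were not always called active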
# TAR Tat displ – HIV-1 TAR-Tat binding disruption | HIV-1 TAR RNA, Tat peptide displacement FRET; hits give high values | 0.6% of 100,000 active | z-score (test concentration not listed);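 further: score is relative to mean and SD of negative controls; some compounds called inactive have numbers as strong as hits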
# * = called active by the depositor; . = not tested or not shown.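 How the source made its calls: active means z-score from 3 up in half or more of its runs; inactive means the rest.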
SMILES,CDC25B-CDK2 inh,TAR Tat displ
COc1ccc(C2CC(=O)NC3=C2C(=O)CC(c2cccs2)C3)cc1OC (stereo not drawn),1.3,1.3
COc1cccc(NC2C=CS(=O)(=O)C2)c1 (stereo not drawn),-0.8,0.25
CCOC(=O)c1oc2ccc3c(c2c1C)C(=O)CC1(CCCC1)O3,-0.71,0.94
Nc1nc(NCc2ccccc2)nc(NCc2ccco2)c1[N+](=O)[O-],.,1.1
COc1ccc(C2C(C#N)=C(N)Oc3cc(O)ccc32)cc1Cl (stereo not drawn),-0.04,0.4
CC1=C(C(=O)OCCOC(C)C)C(c2cccc(O)c2)C2=C(CCCC2=O)N1 (stereo not drawn),-0.84,1
COCCN(Cc1ccco1)C(=O)Cn1ncc2c(=O)oc3ccccc3c21,-0.68,-0.02
COc1cccc(OCc2nc3ccccc3n2Cc2ccccc2)c1,0.9,1.9
CCCCN(C)c1nc(-c2ccco2)c2c(c1C#N)CC(C)(C)OC2,0.35,-3.4
O=C(Nc1nnc(SCc2cc(=O)n3ccsc3n2)s1)c1cccs1,.,1.5
Cn1c(=O)c2[nH]c(-c3ccc(S(=O)(=O)O)cc3)nc2n(C)c1=O,-0.48,.
Cc1cc(Cl)ccc1Nc1nc(NC2CCCC2)nc2c1cnn2C,.,1.6

# Some of the entries so far, with two lines to a compound.
# The line under a structure holds: CDC25B-CDK2 inh | TAR Tat displ
> COc1ccc(C2C(C#N)=C(N)Oc3cc(O)ccc32)cc1Cl (stereo not drawn)
    -0.04 | 0.4
> CC1=C(C(=O)OCCOC(C)C)C(c2cccc(O)c2)C2=C(CCCC2=O)N1 (stereo not drawn)
    -0.84 | 1

# (continued)
SMILES,CDC25B-CDK2 inh,TAR Tat displ
COC(=O)c1c(NC(=O)COc2cccc(Br)c2)sc2c1C(C(=O)OC)CC2 (stereo not drawn),-1.5,-0.75
Cc1ccc(-c2noc(CCCOc3ccccc3)n2)cc1,-0.14,1.6
COC(=O)c1ccc2c(=O)[nH]c3c(C(=O)N4CCCCC4)sc(=S)n3c2c1,.,1.5
CCC(C)Nc1ncnc2c1cnn2-c1cc(Cl)ccc1C (stereo not drawn),.,2.3
CCOC(=O)c1sc(NC(=O)c2nc3ncccn3n2)c(C(=O)OC(C)C)c1C,0.19,0.69
CC(C)CC(NS(=O)(=O)c1ccc2c(c1)oc(=O)n2C)C(=O)N1CCCC1 (stereo not drawn),-0.19,.
CCn1nc(-n2cnnc2)c(NS(=O)(=O)c2ccc(C)c(C)c2)c1C,-1.6,-0.84
O=C(Cc1cccs1)NCc1ccc(-c2ccc(F)cc2F)o1,-4,.
Cc1cc2c3c([nH]c2cc1S(=O)(=O)NCc1ccco1)CCCC3=O,.,1.1
CCOC(=O)N1CCN(C(=O)c2ccc3c(c2)N=C(C)c2cc(Cl)ccc2S3)CC1,-0.96,1.3
CCc1ccc(CNc2ncnc3c2nc2n3CCCC2)cc1,.,0.18
Cn1c(C(=O)N2CCCCC2)cc2sccc21,-0.46,1.6
CC1=C(c2ccc(F)cc2)S(=O)(=O)NC1=NCc1ccccn1,.,-0.26
O=C(c1cnn2c1NC(c1ccco1)CC2C(F)(F)F)N1CCN(c2cccc(Cl)c2)CC1 (stereo not drawn),.,0.76
O=C1c2cnccc2CN1c1ccc2c(c1)OCCO2,.,1.2
Cc1nc(C)c(NC(=O)N2CCOCC2)cc1NC(=O)N1CCOCC1,0.16,1.9
CC1=C(C(=O)OCc2ccccc2)C(c2ccc(Br)cc2)n2nnnc2N1 (stereo not drawn),-0.6,.
Cc1ccccc1-c1nc(CS(=O)(=O)CC(=O)N2CCc3ccccc32)c(C)o1,-1.1,0.29
Cc1cc2nc(CSc3ccccc3NS(=O)(=O)c3ccc(Cl)cc3)cc(=O)n2o1,.,0.86
CCCCN1C(=O)C(O)(CC(=O)c2ccc(C)cc2)c2cc(Br)ccc21 (stereo not drawn),1.1,.
COCCCNC(=O)Cn1ncc2c([nH]c3ccccc32)c1=O,.,0.44
CC(C)CN(CCNC(=O)c1csc2c1CCCC2)CC(C)C,-1.1,0.54
CCSc1nn2c(=O)cc(CSc3ccccc3C(=O)O)nc2s1,-0.59,1.9
CC1CSc2ccc(S(=O)(=O)Nc3ccc(F)cc3F)cc2NC1=O (stereo not drawn),.,2.5

# Continued (6 carried over from the part before).
SMILES,CDC25B-CDK2 inh,TAR Tat displ
Cc1cc2nc(CSc3ccccc3NS(=O)(=O)c3ccc(Cl)cc3)cc(=O)n2o1,.,0.86
CCCCN1C(=O)C(O)(CC(=O)c2ccc(C)cc2)c2cc(Br)ccc21 (stereo not drawn),1.1,.
COCCCNC(=O)Cn1ncc2c([nH]c3ccccc32)c1=O,.,0.44
CC(C)CN(CCNC(=O)c1csc2c1CCCC2)CC(C)C,-1.1,0.54
CCSc1nn2c(=O)cc(CSc3ccccc3C(=O)O)nc2s1,-0.59,1.9
CC1CSc2ccc(S(=O)(=O)Nc3ccc(F)cc3F)cc2NC1=O (stereo not drawn),.,2.5
O=C(CSCc1cnn(-c2ccccc2)c1-n1cccc1)Nc1ccc2c(c1)OCCO2,-1.1,-1.5
C#CCSc1nc2c(c(=O)[nH]1)C(c1ccc(O)c(OCC)c1)CC(=O)N2 (stereo not drawn),0.74,3.2
Cc1cc(C)n2cc(CSc3nc4ccccc4o3)nc2n1,0.13,.
COC(=O)CSc1nnc(-c2c[nH]c3ccccc23)n1-c1ccc(OC)cc1,-1.4,.
COc1cc(NC(=O)Nc2nnc(CC(=O)N3CCc4ccccc43)s2)cc(OC)c1,.,1.2
Cc1nc(CS(=O)(=O)c2ccccn2)sc1C(=O)NN,1.1,.
O=C(NCc1ccc(F)cc1)C1=Cc2cc(Br)ccc2OC1,.,0.91
CCOC(=O)c1ccc(N=Cc2ccccn2)cc1,-1.4,.
c1cnc2c(OCCN3CCCCC3)cccc2c1,-0.78,2
Cc1ccc(Nc2nc(N3CCCCC3)nc3c2cnn3C)cc1C,.,1.1
COc1ccc2c(c1)CC(NC(=O)NCc1ccc(OC)cc1OC)CO2 (stereo not drawn),.,0.66
COc1ccc(Oc2coc3cc(OCC(=O)O)ccc3c2=O)cc1,0.58,.
O=C(CSc1ccc(-c2cccs2)nn1)Nc1ccc(Cl)cc1,.,0.91
Cc1cc2c(cc1S(=O)(=O)Nc1cc(F)ccc1F)OCCN2C,.,1.3
Cc1cccc(C)c1Nc1c(-c2ccc(O)cc2)nc2cnccn12,-2.5,0.04
CCCc1cc(Sc2ccc(N)cc2)n2ncnc2n1,1.2,0.13
CCOc1ccc(-c2nn3c(-c4ccccc4Cl)nnc3s2)cc1,-2.2,-0.47
CN(C(=O)c1cc2c(s1)-c1ccccc1S(=O)(=O)C2)C1CCCCC1,-0.4,2.8
CCC1CCCCN1C(=O)Cn1c(=O)n(CC2CCC(C(=O)NC)CC2)c(=O)c2sccc21 (stereo not drawn),.,1
O=[N+]([O-])c1cc2c(c([N+](=O)[O-])c1)Nc1cc(Cl)ccc1O2,-1.4,.
CCC(C(=O)NCCCN(CC)CC)n1nc(C)n2c(cc3occc32)c1=O (stereo not drawn),-0.4,1.9
Oc1cccc(-c2n[nH]c(=S)o2)c1,-0.65,.
COc1ccc(-c2nc3c4cnn(-c5ccc(C)c(C)c5)c4ncn3n2)cc1OC,-1.7,0.98
CSC1=NCCN1C(=O)c1c(-c2ccccc2Cl)noc1C,-2.6,.
CCN1CCN(c2nc(N)c([N+](=O)[O-])c(Nc3ccc(C)c(C)c3)n2)CC1,.,0.35
COCCNC(=O)Cn1cc2c(n1)CCC(C)C2 (stereo not drawn),1.5,.
CCOC(=O)N1CCN(c2c(NCCC(C)C)c(=O)c2=O)CC1,-0.73,0.32
Cc1ccccc1-n1c(C)c(C)c2c1ncn1nc(-c3ccccc3O)nc21,-0.78,-0.34
COc1ccc(N2CCN(S(=O)(=O)c3ccc(F)cc3)CC2)cc1,-2,.
O=S1(=O)C[C@H](N2CCc3ccccc3C2)[C@@H](S(=O)(=O)c2ccc(Cl)cc2)C1,-1.6,0.19
CNC(=O)N1CCC2(CC1)Nc1ccccc1-n1cccc12,.,0.2
CCOC(=O)CNC(=O)N1CC=C(c2c[nH]c3ccccc23)CC1,.,1.1
CC(C)(C)NC(=O)Cn1c(=O)oc2cc(S(=O)(=O)N3CCc4ccccc43)ccc21,-1.4,.
O=C(CS(=O)(=O)c1ccc2c(c1)S(=O)(=O)N=CN2)Nc1ccc(F)cc1,.,1.4
N#Cc1cc(Sc2ccccn2)c(Sc2ccccn2)cc1C#N,-21,.
COc1cc(C2Nc3ccc4ccccc4c3C3=C2C(=O)CC(C)(C)C3)ccc1OC(C)C(=O)O (stereo not drawn),1.5,.
Fc1ccc(CNc2ncnc3onc(-c4ccc(F)cc4)c23)cc1,.,0.09
CC1=C(c2ccc(C)cc2)S(=O)(=O)NC1=NCCCN1CCN(C2CCCCC2)CC1,-2,-0.43
CCc1sc(-c2c(C#N)c(N)nc3c2CCCCC3)cc1[N+](=O)[O-],-1,0.12
Cc1cc(C)cc(NS(=O)(=O)c2ccc(-c3cnc(C4CC4)o3)cc2)c1,.,0.94
Cc1c(C)n(C)c2ccc(C(=O)NC3CC3)cc12,.,-0.62
CCC(C)n1c(=O)[nH]c2c1c(=O)n(C)c(=O)n2C (stereo not drawn),0.56,.
O=C(Cn1c(=O)oc2cc(S(=O)(=O)N3CCCCC3)ccc21)NC1CCCc2ccccc21 (stereo not drawn),-0.62,-0.42
COC(=O)c1ccc(CO/N=C(\N)c2cc(Cl)c(N)c(Cl)c2)o1,-0.14,.
CCCCN(C)C(=O)c1sc2ncn(CCOCC)c(=O)c2c1C,-1.5,.
Cc1ccc(CC(=S)N2CCOCC2)cn1,-0.92,.
COc1ccc(C2CC(=O)N3CN(c4ccc(CCO)cc4)CSC3=C2C#N)cc1 (stereo not drawn),6*,0.63
CCOC(=O)C1=C(C)N(Cc2ccccc2)C(=O)C1CC(=O)O (stereo not drawn),-2.5,.

# Among those listed so far, four contain a COOH group:
SMILES,CDC25B-CDK2 inh,TAR Tat displ
CCSc1nn2c(=O)cc(CSc3ccccc3C(=O)O)nc2s1,-0.59,1.9
COc1ccc(Oc2coc3cc(OCC(=O)O)ccc3c2=O)cc1,0.58,.
COc1cc(C2Nc3ccc4ccccc4c3C3=C2C(=O)CC(C)(C)C3)ccc1OC(C)C(=O)O (stereo not drawn),1.5,.
CCOC(=O)C1=C(C)N(Cc2ccccc2)C(=O)C1CC(=O)O (stereo not drawn),-2.5,.

# Retrieved by compound from the list above:
SMILES,CDC25B-CDK2 inh,TAR Tat displ
O=C(Cn1c(=O)oc2cc(S(=O)(=O)N3CCCCC3)ccc21)NC1CCCc2ccccc21 (stereo not drawn),-0.62,-0.42
CCCCN(C)C(=O)c1sc2ncn(CCOCC)c(=O)c2c1C,-1.5,.
COc1ccc(C2CC(=O)N3CN(c4ccc(CCO)cc4)CSC3=C2C#N)cc1 (stereo not drawn),6*,0.63
Cc1ccc(CC(=S)N2CCOCC2)cn1,-0.92,.

# (continued)
SMILES,CDC25B-CDK2 inh,TAR Tat displ
CCCCN(C)c1ncnc2oc(C)c(C(=O)OCC)c12,.,0.11
COC(=O)c1c(C)oc(C)c1S(=O)(=O)NN(C)c1ccc([N+](=O)[O-])cn1,-0.72,.
CCOC(=O)c1cnn(-c2c([N+](=O)[O-])c(C)nn2C)c1N,-0.57,.
CC1Cc2cc(S(=O)(=O)N(C)CC(=O)Nc3ccc(Cl)cn3)ccc2N1C(=O)C1CC1 (stereo not drawn),.,1.3
CCCCN(Cc1cc2cc(OC)ccc2[nH]c1=O)S(=O)(=O)c1ccccc1,-1.1,1.8
C[C@H](c1ccc(F)cc1CCCC(=O)O)N(c1cc(F)ccc1F)S(=O)(=O)c1ccc(Cl)cc1,-2,.
Cc1cccc(NS(=O)(=O)c2c(C)nc3sccn3c2=O)c1,.,1.7
CCC(C)C1Nc2ccc(C(=O)N3CCCC3)cc2NC1=O (stereo not drawn),-1.6,-0.02
CC(C)Cc1nn2c(=O)cc(CSc3n[nH]c(-c4ccccc4)n3)nc2s1,.,1.6
CCCCCCn1c(N2CCCCC2)nc2c1c(=O)n(C)c(=O)n2C,-1.9,.
CCOC(=O)C1=C(CS(=O)(=O)c2ccc(C(C)C)cc2)NC(=O)NC1c1ccccc1 (stereo not drawn),-1.4,.
CN(C(=O)CCS(=O)(=O)c1cc2c(cc1Cl)NC(=O)CO2)C1CCCCC1,.,2.7
O=C(CN1C(=O)c2cccc3cccc1c23)N1CCN(c2ccccc2)CC1,-1.6,-1.2
CC1Cc2cc(S(=O)(=O)N(C)CC(=O)Nc3cccnc3)ccc2N1C(=O)C1CC1 (stereo not drawn),.,1.2
O=C(NCCc1ccncc1)NC(=O)c1c(Cl)cccc1Cl,-0.97,.
CCc1nnc(NC(=O)CSc2nc(-c3ccccc3)nc3cc(=O)[nH]n23)s1,.,1.7
CC(=O)N1c2c(cc(Br)cc2S(=O)(=O)NCc2cccs2)CC1C (stereo not drawn),0.16,.
O=c1c2c3c(sc2n2cnnc2n1-c1ccccc1)CCCCC3,-1.7,.
CSc1cccc(N/C(=N\S(=O)(=O)c2ccccc2)SCC(=O)O)c1,-0.13,.
COc1ccc(Br)c(-c2nc(CS(=O)(=O)c3ccsc3)no2)c1,0.76,.
CC1CCCN(c2nc(NCC(=O)O)nc(N)c2[N+](=O)[O-])C1 (stereo not drawn),.,0.1
Cc1nnc(NC(=O)CSc2nc3ccccc3[nH]2)s1,-3,2.4
CCc1c(C)sc(N2C(=O)C3C4C=CC(C4)C3C2=O)c1C#N (stereo not drawn),-0.78,.
O=C1c2cccnc2C(=O)N1CCc1ccc(S(=O)(=O)NCc2ccccc2Cl)cc1,.,-1.1
CCCC(=O)n1c(=O)oc2cc(Cl)ccc21,-0.73,.
CCOC(=O)N1CCC(NC(=O)C2CCCN(c3nc4c(C)cc(C)cc4s3)C2)CC1 (stereo not drawn),0.13,-0.14
CC(C)(C)Cc1nnc(NC(=O)CCC2CCCCC2)s1,-0.63,.
COc1ccc(C2C(C#N)=C(N)OC3=C2C(=O)CC(c2ccccc2)C3)cc1 (stereo not drawn),-0.86,.
Cn1c(-c2ccc3nc(-c4ccc(N)cc4)[nH]c3c2)nc2cc(N)ccc21,6.3,2.5
O=C1CCCc2cc(S(=O)(=O)N3CCC(C(=O)NCC4CCCO4)CC3)ccc2N1 (stereo not drawn),.,1.6
